Screening data: PubChem, ICCB-Longwood Screening Facility, Harvard Medical School
Anaer choline gr = blocks anaerobic gram-negative growth on choline. Gram-negative bacterium anaerobic choline minimal medium, absorbance growth; hits give low values; many inactives read as strong as hits in the columns shown. calls only. actives 0.2% (n = 55,000). AID 1963822;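 active = growth z-score on choline under -2 at 7 or 20 h with little or no fall on glycerol, limits in tiers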;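 also: stock transfer was 300 nL into about 50 µL; the organism is E. coli; final concentration not given here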
Anaer choline gr early = recorded beside Anaer choline gr, whose call it bears; z-score; measured here: choline growth z-score, timepoint 1;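 score of optical density at 7 h as mean of two plates; lower means less growth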
The depositor's hits bear a star; i = inactive; & = joins results of further samples. Some of the compounds tested; the hit share may differ from the screen's.

Start of the data: the first 15 compounds as a preview:
SMILES	Anaer choline gr	Anaer choline gr early
O=C(Nc1ccc2c(c1)OCCO2)c1ccc(-c2noc(C3CC3)n2)cc1	i	0.43
Cc1ccc(C(=O)Cn2nc3n(C(C)C)c(=O)c4ccc(C(=O)NCC(C)C)cc4n3c2=O)cc1	i	0.71
COc1ccc(-c2nnc(SCc3ccc(C#N)cc3)o2)cc1	i	-0.96
Cc1ccc(NC(=O)c2nnc(C(=O)NCc3c(C)nn(C)c3C)s2)cc1	i	-0.93
CC(=O)Nc1nc(-c2ccc(S(=O)(=O)N3CCOCC3)cc2)cs1	i	-0.45
COc1ccc(S(=O)(=O)NCCc2cn3c(C)csc3n2)cc1C	i	-0.23
Cc1nn(-c2ccc3nnc(C)n3n2)c2c1C(c1ccc(OC(C)C)cc1)CC(=O)N2 (configuration not stated)	i	0.08
CN(C)C(N)=NCCC[C@H](N)C(=O)O	i	0.28
Cn1cc(S(=O)(=O)c2ccccc2)c(=O)c2cc(F)c(N3CCN(c4ccccc4)CC3)cc21	i	0.69
O=C(CC1CCN(C(=O)c2cc3ccccc3[nH]2)CC1)NCc1ccccc1	i	-0.85
O=C(c1ccc(N2C(=O)CCS2(=O)=O)cc1)N1CCCC1	i	-1.1
CC(C)c1ccc(NC(=O)CN(C)S(=O)(=O)c2ccc3c(c2)CC(C)N3C(=O)C2CC2)cc1 (configuration not stated)	i	0.62
CCCN1C(=O)COc2ccc(-c3noc(C(C)Oc4cccc(Cl)c4)n3)cc21 (configuration not stated)	i	2.6
CCC(=O)Nc1ccc(C)cc1-c1nnc(SC(C)C(=O)Nc2c(C)cc(C)cc2C)[nH]c1=O (configuration not stated)	i	-1.3
O=S(=O)(NCCn1c(C(F)(F)F)nc2cccnc21)c1ccc(F)c(Cl)c1	i	0

The list itself, from the first entry:
SMILES	Anaer choline gr	Anaer choline gr early
O=C(Nc1ccc2c(c1)OCCO2)c1ccc(-c2noc(C3CC3)n2)cc1	i	0.43
Cc1ccc(C(=O)Cn2nc3n(C(C)C)c(=O)c4ccc(C(=O)NCC(C)C)cc4n3c2=O)cc1	i	0.71
COc1ccc(-c2nnc(SCc3ccc(C#N)cc3)o2)cc1	i	-0.96
Cc1ccc(NC(=O)c2nnc(C(=O)NCc3c(C)nn(C)c3C)s2)cc1	i	-0.93
CC(=O)Nc1nc(-c2ccc(S(=O)(=O)N3CCOCC3)cc2)cs1	i	-0.45
COc1ccc(S(=O)(=O)NCCc2cn3c(C)csc3n2)cc1C	i	-0.23
Cc1nn(-c2ccc3nnc(C)n3n2)c2c1C(c1ccc(OC(C)C)cc1)CC(=O)N2 (configuration not stated)	i	0.08
CN(C)C(N)=NCCC[C@H](N)C(=O)O	i	0.28
Cn1cc(S(=O)(=O)c2ccccc2)c(=O)c2cc(F)c(N3CCN(c4ccccc4)CC3)cc21	i	0.69
O=C(CC1CCN(C(=O)c2cc3ccccc3[nH]2)CC1)NCc1ccccc1	i	-0.85
O=C(c1ccc(N2C(=O)CCS2(=O)=O)cc1)N1CCCC1	i	-1.1
CC(C)c1ccc(NC(=O)CN(C)S(=O)(=O)c2ccc3c(c2)CC(C)N3C(=O)C2CC2)cc1 (configuration not stated)	i	0.62
CCCN1C(=O)COc2ccc(-c3noc(C(C)Oc4cccc(Cl)c4)n3)cc21 (configuration not stated)	i	2.6
CCC(=O)Nc1ccc(C)cc1-c1nnc(SC(C)C(=O)Nc2c(C)cc(C)cc2C)[nH]c1=O (configuration not stated)	i	-1.3
O=S(=O)(NCCn1c(C(F)(F)F)nc2cccnc21)c1ccc(F)c(Cl)c1	i	0
CC(=O)N1c2ccc(S(=O)(=O)NCC3CCC(C(=O)Nc4cc(C)ccn4)CC3)cc2CC1C (configuration not stated)	i	0.81
Cc1ccc(NC(=O)C(C)Oc2ccc(-c3cnc4ccccc4n3)cc2)cc1 (configuration not stated)	i	0.78
COc1ccc(C(=O)c2ccccc2O)c(O)c1	i	-0.07
COCCOC(=O)C1=C(C)NC(=O)NC1c1cn(-c2ccccc2)nc1-c1ccc(Br)cc1 (configuration not stated)	i	0.15
Cc1cc(C)n(-c2nc(CC(=O)Nc3ccccc3)cs2)n1	i	0.66
O=C(CN1C(=O)CN(C(=O)NCc2ccccc2)c2ccccc21)N1CCN(c2ccccc2)CC1	i	0.1
Cc1ccc(O)c(C2=Nc3ccccc3N=C(c3ccccc3)C2)c1	i	0
Cc1[nH]c(C)c(S(=O)(=O)N2CCCCCC2)c1-c1nnc(C2CCC2)o1	i	-1
Cn1nc(C(=O)NCc2ccccc2)c2c1CCN(C(=O)COc1ccc(Cl)cc1)C2	i	0.63
CCc1onc(C)c1C1CCCN1C(=O)NC(C)C (configuration not stated)	i	-0.43

Later entries
SMILES	Anaer choline gr	Anaer choline gr early
O=C(Nc1ccc(Br)cc1)Nc1cccc(-c2nnc(-c3ccccc3)o2)c1	i	3
COc1ccc(N2C(=O)c3cc4ccccc4n3CC2(C)C(=O)NC2CCCCC2)cc1 (configuration not stated)	i	0.14
O=C(Nc1cc(F)c2[nH]c(=O)ccc2c1)C1CCCCC1	i	0.51
COc1ccc(C2CC(c3ccc(NS(C)(=O)=O)cc3)=NN2S(=O)(=O)c2ccc(C)cc2)cc1 (configuration not stated)	i	0.26
Cc1noc(C)c1C1CCCN1Cc1cccc(Cl)c1 (configuration not stated)	i	0.01
COc1ccc(CNS(=O)(=O)c2cc(-c3cc(C(F)(F)F)on3)sc2C)cc1	i	0.18
CCOC(=O)CC(NC(=O)Nc1c(-c2ccncc2)[nH]c2ccc(F)cc12)c1ccccc1 (configuration not stated)	i	0.25
CCCNC(=O)c1cnc(N2CCN(CC)CC2)nc1C	i	-0.46
CCC(=O)NCCc1nc2cc(NC(=O)C3CCCCC3)ccc2n1C	i	-0.11
O=C(Nc1ccc2c(c1)OCCO2)c1nc2nc(-c3ccc(F)cc3)cc(C(F)(F)F)n2n1	i	0.07
COc1ccc(CN2CC(C(=O)NCCCN3CCC(Cc4ccccc4)CC3)CC2=O)cc1 (configuration not stated)	i	-0.85
CC(C)Cn1c(=O)c2ccc(C(=O)NC(C)C)cc2n2c(=O)n(CC(=O)NC(C)(C)C)nc12	i	1.6
Cc1nc(-c2ccc3c(c2)CCN3C(=O)Cc2ccc(Br)cc2)no1	i	1.6
CN1CCCN=C1/C=C/c1cccs1	i	0.66
CC(C)Cc1csc(-c2csc(S(=O)(=O)NCc3ccc(Cl)cc3)c2)n1	i	-0.28
CCc1ccc2c(c1)-c1ccccc1S(=O)(=O)N2CC(=O)NC(C)CC (configuration not stated)	i	0.85
CC(=O)OCC(=O)[C@@]12N=C(C)O[C@@H]1CC1C3CCC4=CC(=O)C=C[C@]4(C)C3[C@@H](O)C[C@@]12C (some centres not stated)	i	0.55
Cc1ccccc1C(=O)N1CCC(=O)Nc2ccccc21	i	-0.19
Cc1nn(-c2ccc(N3CCCCC3)nn2)c(C)c1CCC(=O)N1CCN(c2ccccn2)CC1	i	0.16
Cc1ccc2c(c1)N(CC(=O)NC(C)C)C(=O)CO2	i	0.39
O=C(CN1C(=O)COc2ccccc2C1=O)c1cccc(S(=O)(=O)N2CCCC2)c1	i	-0.75
CCNC(=O)NC1CCN(c2ncccn2)CC1	i	-0.32
Brc1cn2c(Nc3ccc4c(c3)OCCO4)c(-c3ccccc3)nc2cn1	i	0.14
CCOc1ccccc1C1Nc2c(C)cc(C)cc2[C@H]2OCCC[C@@H]12 (some centres not stated)	i	0.16
COc1cc(OC)c(NC(=O)N2CCCC2c2c(C)noc2C)cc1Cl (configuration not stated)	i	-0.1

Further entries follow:
SMILES	Anaer choline gr	Anaer choline gr early
Cc1ccc(COC2CN(C(=O)C3CC3)C2)cc1	i	0.14
Clc1ccc(C2=Nn3cnnc3SC2)cc1	i	-1.1
Cc1cc(C)c(S(=O)(=O)N2CCN(c3nc4ccccc4n4cccc34)CC2)c(C)c1	i	-1.2
O=C(O)c1cccc2c1C(=O)N(C1CCCCC1)C2	i	0.69
CCOC(=O)c1c(SCC(=O)Nc2nc3ccccc3s2)nc(=O)[nH]c1C	i	1
CC(C)NC(=O)CN1C(=O)C(C)CSc2ccc(S(=O)(=O)N3CCOCC3)cc21 (configuration not stated)	i	1.1
Cc1cc(OCc2nc3c4ccccc4ncn3n2)cc(C)c1Cl	i	0.43
COc1ccc(NC(=O)c2sc3ncnc(N4CCN(C)CC4)c3c2C)c(OC)c1	i	0.43
O=C(c1cc(-c2ccncc2)n[nH]1)N1CCCC(C(=O)N2CCc3ccccc3C2)C1 (configuration not stated)	i	1.2
CCOc1ccc(S(=O)(=O)N2CCN(C)CC2)cc1-c1nc(C)no1	i	0.06
Cc1ccc(-c2nc3ccccc3n2CCNS(=O)(=O)c2cc(C)ccc2C)cc1	i	-0.02
Cc1ccc(-n2ncc(-c3cc(C(=O)Nc4ccc5c(c4)OCCO5)c4cc(C)ccc4n3)c2C)cc1	i	0.92
CCCCC[C@H](O)/C=C/[C@@H]1[C@@H](C/C=C\CCCC(=O)NCCO)[C@@H](O)C[C@H]1O	i	-0.75
O=c1[nH]c2cc3c(cc2c(=O)n1CCCc1nc(-c2ccncc2)no1)OCO3	i	-1.1
O=C(CN1CCN(Cc2ccccc2)C(=O)C1=O)Nc1nc2ccccc2s1	i	-0.45
COc1ccc(CCNC(=O)CN2C(=O)COc3ccc(C)cc32)cc1OC	i	0.7
Cc1[nH]c(C(=O)N2CCC(CC(=O)NCCCN3CCN(c4ccc(F)cc4)CC3)CC2)c(C)c1C	i	-2.1
CCCCNC(=O)CN(C)S(=O)(=O)c1ccc2c(c1)c(=O)n(C)c(=O)n2C	i	0.49
Cn1c(SCC(=O)NCc2ccccc2)nc2cc(-c3ccccc3)sc2c1=O	i	0.11
CCc1ccc2oc(C(=O)N3CCN(C)CC3)cc(=O)c2c1	i	0.47
O=c1c(=O)n(-c2ccccc2)ccn1Cc1cccc(F)c1	i	-0.79
CCC(C(=O)Nc1ccc(F)cc1F)n1nc(C)c2c(C)n(-c3ccccc3)nc2c1=O (configuration not stated)	i	1.3
O=S(=O)(O)Oc1ccc(C(c2ccc(OS(=O)(=O)O)cc2)c2ccccn2)cc1	i	0.33
Cc1noc(C)c1C1CCCN1C(=O)NCC(C)C (configuration not stated)	i	1.3
O=C(c1ccc(S(=O)(=O)c2ccc(Br)cc2)nc1)N1CCN(c2ncccn2)CC1	i	-0.39

Going on with the list.
SMILES	Anaer choline gr	Anaer choline gr early
COc1ccc2nc(NC(=O)NCc3noc4ccccc34)sc2c1	i	-0.91
Cc1ccc(NC(=O)N2CCN(Cc3nc4cccnc4n3-c3ccccc3)CC2)c(C)c1	i	-0.02
COc1ccc(N2CC(c3nnc(NC(=O)CCC4CCCC4)o3)CC2=O)cc1 (configuration not stated)	i	0.02
Cc1ccc2ccc3cc(C(=O)N4CCc5ccccc54)nc3c2[nH]1	i	1.1
CCC(C)NC(=O)c1nc(CCS(=O)(=O)c2ccccc2)no1 (configuration not stated)	i	-0.93
COc1ccc(Nc2cc(C)nc(Nc3ccc(NC(=O)C(C)C)cc3)n2)cc1	i	0.67
CC(C)n1cnc2nc(CSc3ccccc3NC(=O)COc3ccccc3Cl)cc(=O)n21	i	0.47
CCOC(=O)CS(=O)(=O)c1cc2c(cc1NC(=O)C(C)(C)C)n(C)c(=O)c(=O)n2C	i	1.4
O=C(C1CC1)N1CCc2cc(-c3csc(C4CC4)n3)ccc21	i	0.24
O=C(NCc1nc(-c2ccc3c(c2)Sc2ccccc2C(=O)N3C2CCCC2)no1)c1ccccc1	i	-0.54
c1cc(-c2noc(-c3cccc4[nH]ccc34)n2)cc(-c2ccn[nH]2)c1	i	-0.57
O=C(Cn1ccn2nc(-c3ccc(Cl)cc3)cc2c1=O)Nc1ccc(Cl)cc1F	i	-0.24
O=C(O)c1cccn2c(=O)c3ccccc3nc12	i	0.9
CC(Sc1nc2ncccc2o1)C(=O)N1CCCc2ccccc21 (configuration not stated)	i	-0.14
O=C(Nc1ccc(Br)cc1)c1cccc(Oc2cc(-c3ccccc3)ncn2)c1	i	2
O=C(NCc1cccnc1)c1cccn2c(=O)c3cc(Cl)ccc3nc12	i	-0.04
CCC(=O)NCc1nc2cccnc2n1CCOC	i	-1.6
CC1=NS(=O)(=O)c2cccnc2N1c1ccc(Br)cc1	i	0.74
Cn1nc(-c2nc(-c3ccccc3)no2)c2c1CCN(S(=O)(=O)c1cc(F)ccc1F)C2	i	-0.67
O=S(=O)(NC1CCCCC1)c1ccc(-c2ccno2)s1	i	-0.15
CC(C)NC(=O)CC1CCN(S(=O)(=O)c2ccc(Br)s2)CC1	i	-0.57
COCCNC(=O)CSc1nnc(-c2ccncc2)o1	i	-0.08
C[C@@H]1CN(c2c(F)c(N)c3c(=O)c(C(=O)O)cn(C4CC4)c3c2F)C[C@H](C)N1	i	-2.4&-2.5
Cc1nc2cccnc2n1-c1cc(C(=O)NC2CCCC2)ccc1Cl	i	0.37
CCN1C(=O)C2CCCCN2c2ccc(C(=O)N3CCN(c4ccccc4)CC3)cc21 (configuration not stated)	i	0.04

(continued)
SMILES	Anaer choline gr	Anaer choline gr early
O=c1nc(SCc2ccccc2Cl)c2c(n1C1CCCC1)CCC2	i	0.52
Cc1nccnc1N1CCCCC1	i	0.45
CC(C)n1c(N2CCCN(C(=O)CCC(=O)N3CCOCC3)CC2)cc(=O)n(C(C)C)c1=O	i	-1.9
COc1cc(OC)c(NC(=O)C(C)n2nc(-c3ccc(C)cc3)c3c(c2=O)CCCC3)cc1Cl (configuration not stated)	i	-0.12
CN(C)S(=O)(=O)N(CC(=O)NCCCN1CCN(c2ccc(F)cc2)CC1)c1ccc(F)cc1	i	-1.3
COc1ccc2[nH]c(=O)c3c(c2c1)OC(C)(C)C=C3	i	1.2
CC(=O)N1c2ccc(S(=O)(=O)N3CCC(C(=O)Nc4cccnc4)CC3)cc2CC1C (configuration not stated)	i	0.47
O=C(Cc1ccccc1)NC1=C(C(=O)c2ccccc2)N(Cc2ccccc2)S(=O)(=O)c2ccccc21	i	1.2
COc1ccc(OC)c(CNC(=O)c2cccc(-c3cnc(NC4CCCCC4)nc3)c2)c1	i	-0.11
Cc1nn(C(=O)Nc2cccc(Cl)c2)c2ccccc12	i	2.7
O=C(Cc1csc(NC(=O)c2ccccc2)n1)Nc1cccc(Br)c1	i	0.5
O=C(c1cccc(-c2noc(-c3cncc(Br)c3)n2)c1)N1CCCC1	i	-1.3
